A1 apoptosis 2: A1 inhibitors via caspase activation, primary screen, cell-based, luminescence, HTS, two replicates; 24,000 tested, under 10 active; caspase activation, % (test concentration not listed); MEF A1-2A-BIM cells, caspase-Glo luminescence, 3 h; percent of clofoctol response, DMSO zero; in the data active = caspase activation above about 5.9%;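 note: wells of about 30 µL received 50 nL stock; the first replicate is given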
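Material: mouse embryonic fibroblasts co-expressing A1 and BIM (A1-2A-BIM), primed for A1 dependence / Quantity: 2500 cells/well / Buffer or medium: RPMI-1640 growth medium with 10% FBS / Doses: 50 nL compound per well, pinned / Schedule: 3 h compound exposure at 37 °C / Signal: Caspase-Glo luminescence (DEVD substrate) / Measure: Caspase-3/7 activation, seen as rise in luminescence signal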
Numbers without * were called inactive.

SMILES | A1 apoptosis 2
C[C@@H]1CN([C@H](C)CO)C(=O)Cc2cc(NC(=O)C3CC3)ccc2O[C@H]1CN(C)Cc1ccc(C(F)(F)F)cc1 | 1.0
COc1ccc(S(=O)(=O)N(C)C[C@H]2Oc3c(NC(=O)C4CC4)cccc3C(=O)N([C@H](C)CO)C[C@@H]2C)cc1 | -1.3
CC(C)NC(=O)N(C)C[C@@H]1Oc2c(NC(=O)Nc3ccc4c(c3)OCO4)cccc2C(=O)N([C@@H](C)CO)C[C@@H]1C | -1.6
O=C(N/N=C/c1ccc2ccccc2c1O)c1ccccn1 | -4.1
C[C@@H]1CN([C@H](C)CO)C(=O)c2cccc(NC(=O)C3CCOCC3)c2O[C@H]1CN(C)C | 1.8
C[C@@H]1CN([C@@H](C)CO)C(=O)c2cc(NS(=O)(=O)c3cn(C)cn3)ccc2O[C@H]1CN(C)C | -0.1
COc1ccc(-c2cn(C[C@@H](Cc3ccccc3)NC(=O)Nc3ccccc3)nn2)cc1OC | -0.9
Cc1noc(C)c1S(=O)(=O)Nc1ccc2c(c1)C(=O)N([C@H](C)CO)C[C@@H](C)[C@@H](CN(C)S(=O)(=O)c1ccc(Cl)cc1)OCCCC[C@@H](C)O2 | -0.5
C[C@H](CO)N1C[C@H](C)[C@@H](CN(C)Cc2ccc(Oc3ccccc3)cc2)Oc2ccc(NS(=O)(=O)c3ccccc3)cc2C1=O | -0.8
C[C@@H]1CN([C@H](C)CO)C(=O)Cc2cc(NC(=O)Cc3ccccc3)ccc2O[C@H]1CN(C)CC1CC1 | 0.2
C[C@@H]1CN([C@H](C)CO)C(=O)Cc2cc(NC(=O)NC3CCCCC3)ccc2O[C@H]1CN(C)C(=O)NC1CCCCC1 | 0.1
COc1ccc(NC(=O)Nc2ccc3c(c2)CC(=O)N([C@H](C)CO)C[C@@H](C)[C@H](CN(C)C(=O)NC(C)C)O3)cc1 | -0.5
C[C@H](CO)N1C[C@H](C)[C@@H](CN(C)C(=O)Nc2cccc3ccccc23)Oc2c(NS(=O)(=O)c3ccc(Cl)cc3)cccc2C1=O | 0.0
C[C@@H]1CN([C@H](C)CO)C(=O)Cc2cc(NS(=O)(=O)c3ccc(F)cc3)ccc2O[C@@H]1CN(C)S(=O)(=O)c1cccs1 | -0.2
Cc1noc(C)c1NC(=O)N(C)C[C@H]1Oc2ccc(NS(=O)(=O)c3ccccc3)cc2C(=O)N([C@@H](C)CO)C[C@@H]1C | -0.5
COc1ccc(NC(=O)Nc2ccc3c(c2)CC(=O)N([C@H](C)CO)C[C@@H](C)[C@H](CN(C)S(=O)(=O)c2cn(C)cn2)O3)cc1 | -0.3
C[C@@H]1CN([C@@H](C)CO)C(=O)c2cc(NS(=O)(=O)c3cccs3)ccc2O[C@@H]1CN(C)C(=O)Nc1ccc(F)cc1 | -1.3
C[C@H]1CN([C@@H](C)CO)C(=O)c2cc(NC(=O)Cc3cn(C)c4ccccc34)ccc2O[C@@H]1CN(C)C(=O)Nc1ccc2c(c1)OCO2 | 0.6
C[C@@H]1CN([C@H](C)CO)C(=O)c2cccc(NC(=O)c3ccc(-c4nccs4)cc3)c2O[C@H]1CN(C)CC1CCCCC1 | -0.5
Cc1ccc(S(=O)(=O)Nc2ccc3c(c2)CC(=O)N([C@@H](C)CO)C[C@@H](C)[C@H](CN(C)Cc2ccc(C(=O)O)cc2)O3)cc1 | -0.4
C[C@@H]1CN([C@H](C)CO)C(=O)Cc2cc(NC(=O)NC3CCCCC3)ccc2O[C@@H]1CN(C)C(=O)Nc1ccc2c(c1)OCO2 | 0.0
Cc1noc(C)c1NC(=O)Nc1ccc2c(c1)C(=O)N([C@H](C)CO)C[C@H](C)[C@@H](CN(C)Cc1ccccc1)OCCCC[C@@H](C)O2 | -2.0
C[C@@H]1CN([C@@H](C)CO)C(=O)c2cccc(NS(=O)(=O)c3cn(C)cn3)c2O[C@H]1CN(C)Cc1ccc(Oc2ccccc2)cc1 | -1.0
C[C@H]1CN([C@@H](C)CO)C(=O)CCCn2cc(nn2)CO[C@@H]1CN(C)S(C)(=O)=O | -0.8
C[C@H](CO)N1C[C@H](C)[C@H](CN(C)S(=O)(=O)c2cn(C)cn2)Oc2c(NC(=O)c3nc4ccccc4s3)cccc2C1=O | -1.3

Part of the list above, with tabs:
canonical_smiles	A1 apoptosis 2
C[C@@H]1CN([C@H](C)CO)C(=O)Cc2cc(NC(=O)NC3CCCCC3)ccc2O[C@@H]1CN(C)C(=O)Nc1ccc2c(c1)OCO2	0.0
Cc1noc(C)c1NC(=O)Nc1ccc2c(c1)C(=O)N([C@H](C)CO)C[C@H](C)[C@@H](CN(C)Cc1ccccc1)OCCCC[C@@H](C)O2	-2.0
C[C@H](CO)N1C[C@H](C)[C@H](CN(C)S(=O)(=O)c2cn(C)cn2)Oc2c(NC(=O)c3nc4ccccc4s3)cccc2C1=O	-1.3
C[C@@H]1CN([C@@H](C)CO)C(=O)c2cc(NS(=O)(=O)c3cn(C)cn3)ccc2O[C@H]1CN(C)C	-0.1
CC(C)NC(=O)N(C)C[C@@H]1Oc2c(NC(=O)Nc3ccc4c(c3)OCO4)cccc2C(=O)N([C@@H](C)CO)C[C@@H]1C	-1.6
C[C@H]1CN([C@@H](C)CO)C(=O)c2cc(NC(=O)Cc3cn(C)c4ccccc34)ccc2O[C@@H]1CN(C)C(=O)Nc1ccc2c(c1)OCO2	0.6

(cont.)
SMILES | A1 apoptosis 2
C[C@H](CO)N1C[C@H](C)[C@H](CN(C)S(=O)(=O)c2ccc(Cl)cc2)Oc2ccc(NS(=O)(=O)c3ccc(F)cc3)cc2C1=O | 1.5
C[C@H]1CN([C@@H](C)CO)C(=O)c2cc(NS(=O)(=O)c3ccc(Cl)cc3)ccc2O[C@H]1CN(C)C(=O)Nc1ccc2c(c1)OCO2 | -0.2
C[C@@H]1CN([C@H](C)CO)C(=O)Cc2cc(NC(=O)Cn3cnnn3)ccc2O[C@@H]1CN(C)C(=O)Nc1ccc(F)cc1 | 0.2
C[C@@H]1CN([C@H](C)CO)C(=O)c2cccc(NS(=O)(=O)c3ccccc3)c2O[C@@H]1CN(C)CC1CC1 | -0.3
C[C@H](CO)N1C[C@H](C)[C@H](CN(C)C(=O)c2ccccc2)OCCCC[C@H](C)Oc2ccc(NC(=O)NC3CCCCC3)cc2C1=O | 1.0
Cc1ccc(S(=O)(=O)Nc2ccc3c(c2)CC(=O)N([C@H](C)CO)C[C@@H](C)[C@H](CN(C)S(=O)(=O)c2ccc(Cl)cc2)O3)cc1 | -0.2
C[C@H](CO)N1C[C@H](C)[C@@H](CN(C)S(=O)(=O)c2cccs2)OCCCC[C@H](C)Oc2ccc(NC(=O)Nc3ccc(C(F)(F)F)cc3)cc2C1=O | -1.2
CCCN(C)C[C@H]1OCCCC[C@@H](C)Oc2ccc(NC(=O)Cc3ccccc3)cc2C(=O)N([C@H](C)CO)C[C@H]1C | 0.1
C[C@@H]1CN([C@H](C)CO)C(=O)c2cc(NC(=O)Nc3ccccc3)ccc2O[C@@H](C)CCCCO[C@H]1CN(C)Cc1ccc(C(=O)O)cc1 | 0.2
CC(C)NC(=O)N(C)C[C@@H]1Oc2ccc(NC(=O)CCN3CCOCC3)cc2C(=O)N([C@@H](C)CO)C[C@H]1C | -0.3
Cc1ccc(S(=O)(=O)Nc2cccc3c2O[C@H](CN(C)S(=O)(=O)c2ccc(Cl)cc2)[C@@H](C)CN([C@H](C)CO)C3=O)cc1 | -1.7
C[C@H]1CCCCO[C@H](CN(C)Cc2ccncc2)[C@@H](C)CN([C@@H](C)CO)C(=O)c2cc(NC(=O)c3ccncc3)ccc2O1 | 0.0
COc1ccc(NC(=O)N(C)C[C@@H]2OCCCC[C@H](C)Oc3ccc(NC(=O)Cc4ccccc4)cc3C(=O)N([C@H](C)CO)C[C@H]2C)cc1 | 0.2
C[C@H](CO)N1C[C@H](C)[C@@H](CN(C)Cc2ccc(Cl)c(Cl)c2)OCCCC[C@H](C)Oc2ccc(N(C)C)cc2C1=O | -0.5
C[C@H]1CN([C@@H](C)CO)C(=O)c2cc(NC(=O)Cn3cnnn3)ccc2O[C@@H]1CN(C)C | -1.9
COc1ccc(NC(=O)Nc2ccc3c(c2)C(=O)N([C@@H](C)CO)C[C@@H](C)[C@H](CN(C)S(=O)(=O)c2ccccc2)O3)cc1 | 0.9
Cc1ccc(S(=O)(=O)Nc2ccc3c(c2)C(=O)N([C@H](C)CO)C[C@H](C)[C@@H](CN(C)C(=O)Nc2ccccc2)OCCCC[C@@H](C)O3)cc1 | -0.7
C[C@H](CO)N1C[C@H](C)[C@@H](CN(C)Cc2ccccc2)Oc2c(NC(=O)Nc3ccc(F)cc3)cccc2C1=O | -0.4
COc1ccc(CN(C)C[C@@H]2Oc3ccc(NC(=O)c4ccncc4)cc3C(=O)N([C@@H](C)CO)C[C@H]2C)cc1 | -0.6
C[C@]12CCCC(=O)N1CCc1c2[nH]c2ccccc12 | 0.1
C[C@@H]1CN([C@@H](C)CO)C(=O)c2cc(NS(=O)(=O)c3ccc(F)cc3)ccc2O[C@@H](C)CCCCO[C@H]1CN(C)C(=O)Cc1ccccc1 | 0.0
COc1cccc(S(=O)(=O)N(C)C[C@H]2OCc3cnnn3CCCC(=O)N([C@H](C)CO)C[C@H]2C)c1 | 0.4
CCO[C@@H]1OC(C(=O)NCc2nc3ccccc3[nH]2)=C[C@H](C2CC2)[C@H]1CCCO | 1.4
C[C@H](CO)N1C[C@H](C)[C@@H](CN(C)Cc2ccc(-c3ccccc3)cc2)Oc2ccc(NC(=O)Cc3ccccc3)cc2CC1=O | -0.1
O=C(NO)c1ccc(C(=O)N/N=C/c2ccccc2O)cc1 | -0.8
SMILES | A1 apoptosis 2
C[C@H]1CN([C@@H](C)CO)C(=O)c2cc(NC(=O)NC3CCCCC3)ccc2O[C@H]1CN(C)S(=O)(=O)c1ccc(Cl)cc1 | -0.5
C[C@H]1CCCCO[C@@H](CN(C)S(=O)(=O)c2ccc(Cl)cc2)[C@@H](C)CN([C@@H](C)CO)C(=O)c2cc(NC(=O)NC3CCCCC3)ccc2O1 | -0.6
COc1ccc(CN(C)C[C@@H]2Oc3c(NC(=O)C4CCCCC4)cccc3C(=O)N([C@H](C)CO)C[C@@H]2C)cc1 | -1.1
C[C@@H]1CN([C@H](C)CO)C(=O)c2cccc(NC(=O)c3ccncc3)c2O[C@@H]1CN(C)S(=O)(=O)c1ccccc1 | -2.0
C[C@H]1CN([C@@H](C)CO)C(=O)Cc2cc(NS(=O)(=O)c3cccs3)ccc2O[C@@H]1CN(C)S(=O)(=O)c1cn(C)cn1 | 0.9
NC(=O)NCC#Cc1ccc2c(c1)[C@]1(C(=O)N2)[C@H](C(=O)N2CCCCCCC2)[C@H]2C(=O)O[C@H](c3ccccc3)[C@H](c3ccccc3)N2[C@@H]1c1ccccc1OCCO | 1.1
COc1ccc(CN(C)C[C@@H]2Oc3c(NC(=O)c4cnccn4)cccc3C(=O)N([C@H](C)CO)C[C@H]2C)cc1 | 0.7
C[C@@H]1CN([C@@H](C)CO)C(=O)Cc2cc(NS(=O)(=O)c3ccc(F)cc3)ccc2O[C@H]1CN(C)Cc1ccc(C(=O)O)cc1 | -0.1
Cc1ccc(S(=O)(=O)Nc2ccc3c(c2)C(=O)N([C@@H](C)CO)C[C@@H](C)[C@@H](CN(C)C(=O)Nc2ccc(F)cc2)OCCCC[C@@H](C)O3)cc1 | -0.5
CNC[C@H]1Oc2c(NC(=O)c3nc4ccccc4s3)cccc2C(=O)N([C@@H](C)CO)C[C@@H]1C | 0.0
Cc1ccc(S(=O)(=O)N(C)C[C@H]2Oc3ccc(NC(=O)C4CC4)cc3CC(=O)N([C@H](C)CO)C[C@@H]2C)cc1 | 0.5
COc1ccc(NC(=O)Nc2ccc3c(c2)C(=O)N([C@@H](C)CO)C[C@H](C)[C@@H](CN(C)C(=O)Cc2ccccc2)OCCCC[C@@H](C)O3)cc1 | -0.4
C[C@@H]1CN([C@H](C)CO)C(=O)c2cccc(N(C)C)c2O[C@H]1CN(C)Cc1ccc(C(=O)Nc2ccccc2N)cc1 | -0.2
C[C@@H]1CN([C@H](C)CO)C(=O)c2cc(NC(=O)Nc3ccc4c(c3)OCO4)ccc2O[C@@H](C)CCCCO[C@@H]1CN(C)S(=O)(=O)c1ccc(F)cc1 | 1.4
C[C@H](CO)N1C[C@H](C)[C@@H](CN(C)S(=O)(=O)c2cccc(F)c2)OCc2cn(nn2)CCCC1=O | -0.3
COc1ccc(S(=O)(=O)N(C)C[C@@H]2OCCCC[C@H](C)Oc3ccc(NC(=O)c4ccncc4)cc3C(=O)N([C@H](C)CO)C[C@@H]2C)cc1 | -0.3
C[C@@H]1CN([C@H](C)CO)C(=O)Cc2cc(NC(=O)CCCCCC(=O)Nc3ccccc3N)ccc2O[C@H]1CN(C)Cc1ccc2c(c1)OCO2 | -0.5
C[C@@H]1CCCCO[C@H](CN(C)Cc2ccncc2)[C@H](C)CN([C@@H](C)CO)C(=O)c2cc(NS(=O)(=O)c3ccc(F)cc3)ccc2O1 | 0.0
C=CCN1Cc2ccccc2[C@H]2OC(c3ccc(OCCCO)cc3)=N[C@@]2(Cc2ccccc2)C1=O | -0.8
C[C@H](CO)N1C[C@H](C)[C@@H](CN(C)S(=O)(=O)c2ccccc2)Oc2c(NS(=O)(=O)c3cn(C)cn3)cccc2C1=O | 0.2
C[C@H](CO)N1C[C@H](C)[C@@H](CN(C)Cc2ccncc2)Oc2ccc(NC(=O)c3ccncc3)cc2C1=O | -0.1
CCO[C@H]1OC(C(=O)O)=C[C@@H](c2ccccc2)[C@@H]1CCCO | -0.1

Two records drawn at random from the list so far:
SMILES | A1 apoptosis 2
C[C@@H]1CN([C@H](C)CO)C(=O)c2cc(NC(=O)Nc3ccc4c(c3)OCO4)ccc2O[C@@H](C)CCCCO[C@@H]1CN(C)S(=O)(=O)c1ccc(F)cc1 | 1.4
C[C@H](CO)N1C[C@H](C)[C@H](CN(C)S(=O)(=O)c2ccc(Cl)cc2)Oc2ccc(NS(=O)(=O)c3ccc(F)cc3)cc2C1=O | 1.5

Source: PubChem BioAssay

A portion of the library; count on the stated rates, not on these rows.
